Bioassay records from PubChem BioAssay.
ClpP mod = qHTS Assay for Activators of ClpP; ATP-dependent Clp protease proteolytic subunit (Bacillus subtilis (strain 168)), P80244; AID 651965, 2013; purified B. subtilis ClpP, FRET peptide cleavage, 20 min; hit rate 1.9% among 340,000; Potency, µM (top dose mostly 57.5 µM), without a hit: at the top dose activity change, negative = active; active = well fitted falling curve with a large enough effect; inconclusive = small, poorly fitted or top-dose-only effect; inactive = no such curve, though single readings can be large or run the other way; further: potency means the concentration at half of the fitted maximal effect; the source files actives as falling curves though it sought activators and does not explain the sign; nearly all actives have a fitted effect of over 65% in size; many hits overshoot -100%
Target sequence (P80244 whole entry, looked up): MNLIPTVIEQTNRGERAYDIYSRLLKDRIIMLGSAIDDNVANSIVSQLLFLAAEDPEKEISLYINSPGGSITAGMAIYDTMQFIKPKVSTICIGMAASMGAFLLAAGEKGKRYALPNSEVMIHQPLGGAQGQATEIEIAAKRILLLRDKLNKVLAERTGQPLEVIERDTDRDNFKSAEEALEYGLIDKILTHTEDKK
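FRET quenching reversal measured ClpP activation: 10 microg/mL B. subtilis ClpP at pH 8 with the FRET-FV decapeptide, read at 430 nm after 320 nm excitation. The 20-min minus 0-min signal was scaled between DMSO/no-enzyme wells and ADEP (5.8 microM final).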
Sfp inh = Sfp phosphopantetheinyl transferase inhibition; Biochemical Sfp PPTase activity, qHTS; Potency, µM, without a hit: max response, negative = inhibition, actives largely listed as inhibitors; hit rate 3.5% among 310,000; AID 1490; active means well fitted inhibition curve with a large enough effect; inconclusive means small, poorly fitted or top-dose-only effect, or another doubt; inactive means no such curve, though single readings can be large or run the other way;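 further: the enzyme is Sfp with the accession as filed and its product quenches rhodamine fluorescence; potency means the concentration at half of the fitted maximal effect; 0% = enzyme reaction without inhibitor and -100% = no enzyme wells; top concentration of the series not given in the record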
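Fluorescence-quenching assay with 15 nM Sfp, 5 uM rhodamine-CoA and 12.5 uM BHQ-2-labelled ybbR peptide in pH 7.6 Hepes/MgCl2 buffer. Enzyme was pre-incubated with compound for 15 min at room temperature. Rate was taken from the 30-min fluorescence change (525/598 nm).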
TRPML1 agonist = human mucolipin-1 channel agonism. Q9GZU1. TRPML1-expressing cells, Ca2+ dye fluorescence, FDSS; host cell line not named in the record; reference of the full effect not given here. activation, % (test concentration not listed). hit rate 0.12% among 410,000; in the data active = activation above about 50%; inconclusive = about 30% to 50%; inactive = below about 30%; further: 0% is about no effect; the text of the record puts the active cut at 80%
Target sequence (Q9GZU1 whole entry, looked up): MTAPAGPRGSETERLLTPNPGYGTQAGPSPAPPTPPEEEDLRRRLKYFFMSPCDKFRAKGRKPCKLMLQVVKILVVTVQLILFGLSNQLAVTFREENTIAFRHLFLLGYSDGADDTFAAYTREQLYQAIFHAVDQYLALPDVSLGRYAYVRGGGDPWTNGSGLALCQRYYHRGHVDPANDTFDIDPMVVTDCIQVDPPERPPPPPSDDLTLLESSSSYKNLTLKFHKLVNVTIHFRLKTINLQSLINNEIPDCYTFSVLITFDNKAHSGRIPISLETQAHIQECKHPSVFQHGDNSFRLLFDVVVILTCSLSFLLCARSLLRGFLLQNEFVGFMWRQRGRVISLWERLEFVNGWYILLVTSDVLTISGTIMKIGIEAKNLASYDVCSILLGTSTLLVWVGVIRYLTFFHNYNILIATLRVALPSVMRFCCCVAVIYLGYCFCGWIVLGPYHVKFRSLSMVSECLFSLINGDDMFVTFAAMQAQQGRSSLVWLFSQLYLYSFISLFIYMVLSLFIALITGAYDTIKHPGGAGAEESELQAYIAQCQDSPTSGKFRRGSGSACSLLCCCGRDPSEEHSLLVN
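Cells: TRPML1-DL, 1X Tet inducer, ~16 h at 37 degrees C/5% CO2. Dye: ABD Ca8 no-wash + quencher, 45-90 min RT. Read: 10 s baseline, compound add, 110 s agonist phase; 54-4 EC80 (4uM final), 110 s antagonist phase.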
Menin-MLL FL inh = inhibitors of human menin-MLL interaction, wild-type MLL peptide; AID 1766; 290,000 tested, under 10 active; Fluorescence polarization, fluorescein-MLL peptide displacement from menin; FP activity change, % at 61.4 µM; inconclusive = falling polarisation curve, or a change in total fluorescence; inactive = total fluorescence flat and polarisation flat or rising; no compound was filed as active; the % refers to the polarisation; negative = inhibition;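 further: % of control where 0% means no effect; inhibitors lower the polarisation; unlabelled MLL peptide was the positive control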
PINK1 expr mod = modulators of PINK1 expression; PINK1 immunofluorescence, high-content cytometry, 24 h; Potency, µM (top dose mostly 76.6 µM), for inactives: at the highest dose activation (PINK1 increase), most hits filed as activators; hit rate 0.2% among 410,000; active = well fitted activation curve with a large enough effect; inconclusive = small, poorly fitted or top-dose-only effect; inactive = flat fitted curve, though single readings scatter; cell line not stated here;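 further: potency means the concentration at half of the fitted maximal effect; % of control where 0% means no effect; nearly all actives have a fitted effect of over 65% in size; a mitochondrial uncoupler was the plate control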
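Measures PINK1 amount and localization on or inside mitochondria by immunofluorescence. Stable cells get compounds at 5 concentrations for 24 hours before fixation and staining; CCCP controls included.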
TRPV1 potentiator = enhances activation of the human vanilloid receptor TRPV1 | Q8NER1 | TRPV1-expressing cells, Fluo-8 calcium influx, capsaicin EC20 potentiation; host cell line not named in the record; control for the full effect not named in the record | potentiation, % at 8.33 µM | hit rate 0.02% among 320,000 | AID 540277; active means potentiation above 80%; inconclusive means 30% to 80%; inactive means below 30%; further: 0% is about no effect
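Fluo-8 calcium influx in TRPV1-expressing cells, kinetic read (ex 480/em 520 nm). Compound added and read 3 min for agonist activity, followed by capsaicin at EC20 final and 2 min further read for enhancement.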
TRPML1 blocker = inhibitors of human TRPML1 channel; TRPML1-inducible cells, Ca2+ dye fluorescence, FDSS; stronger effect = lower value; inhibition of EC80 agonist-evoked calcium signal; activity change, negative = inhibition, % (no concentration beside the values); hit rate 0.02% among 390,000; AID 624415; in the data active means activity change below about -50%; inconclusive means about -30% to -50%; inactive means above about -30%;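 further: stimulus is agonist 54-4 at its EC80 concentration; on the % scale 0 is the no-effect control and ±100 the full control effect; compound concentration not given in the record; the text of the record puts the active cut at -80%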
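Calcium fluorescence in TRPML1-DL cells induced overnight with Tet: a 110 s read after compound pin addition, then a 110 s antagonist read after challenge with 54-4 at 4 uM final (EC80).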
Starred values were filed as active, the others as inactive; ? = inconclusive; . = not tested or not shown; [ ] = dose if it differs, or a comment.

SMILES | ClpP mod | Sfp inh | TRPML1 agonist | Menin-MLL FL inh | PINK1 expr mod | TRPV1 potentiator | TRPML1 blocker
COc1ccccc1C(=O)NCCC(=O)Nc1ccc(S(=O)(=O)Nc2ncccn2)cc1 | -0.3% | . | 1.1 | . | 0.7% | -7 | 19
NC(=O)CSc1nccn1Cc1ccc(Cl)cc1 | 267% | -1% | 0.7 | -3.8 | -0.1% | -38 | 23
Cn1c(N)c(C(=O)CSc2nc(N)cc(=O)[nH]2)c(=O)n(C)c1=O | -0.7% | 9% | -0.7 | 6.6 | 2.5%[38.3 µM] | ? | 5
O=C(NCC(c1ccco1)N1CCCCC1)C(c1ccccc1)c1ccccc1 (centres undefined) | . | 6% | -0.5 | -3.2 | 0.0% | -41 | 8
COc1ccc(S(=O)(=O)NC(C(=O)NCCc2ccccn2)C(C)C)cc1 (centres undefined) | -1.8% | 9% | -0.2 | 0.0 | 0.7% | -1 | 23
COc1ccc(/C=C(/C(=O)c2ccc(Cl)cc2Cl)n2cncn2)cc1 | -1.0% | 4% | 4.5 | -8.9 | -0.2% | 9 | 3
O=C(Nc1ccccc1OC(F)F)c1cccc(S(=O)(=O)N2CCCC2)c1 | 2.6% | -2% | 1.0 | 1.0 | -1.0% | 21 | 13
Cc1ccccc1-c1nnc(SCC(=O)N(C)c2ccccc2)o1 | -0.7% | . | 0.0 | . | 0.9% | . | 14
Cc1ccc(NC(=O)c2ccc(S(=O)(=O)NCC3CCCO3)cc2)cc1 (centres undefined) | -0.7% | 13% | -0.4 | 4.5 | -0.6%[38.3 µM] | 6 | 2
O=C(NCc1ccccc1)c1ccc(OCC2CCCO2)cc1 (centres undefined) | 0.8% | 12% | -0.2 | 3.6 | -0.7% | -8 | -3
COc1ccc(Nc2cc(C(=O)NCc3ccco3)c3ccccc3n2)cc1 | . | 9% | . | 2.7 | . | 1 | .
O=C(NCCc1ccccc1)c1cc(-c2ccc(Cl)cc2)on1 | 1.5% | . | -0.1 | . | 5.2% | . | -8
COc1cc(CNCCc2ccccc2)ccc1OCc1ccc(Cl)nc1 | 1.0% | -4% | 0.3 | -0.3 | -0.8%[38.3 µM] | 5 | -9
CCN(CC(=O)NCCC1=CCCCC1)S(=O)(=O)c1ccccc1 | -2.6% | 11% | . | 3.6 | 0.5% | -10 | .
COc1cccc(CN(C)C(=O)CC2C(=O)NCCN2C2Cc3ccccc3C2)c1 (centres undefined) | -3.9% | 9% | 0.2 | . | -1.1% | 6 | -9
C[C@H](CO)N1C[C@H](C)[C@@H](CN(C)Cc2ccc3c(c2)OCO3)Oc2c(NC(=O)C3CC3)cccc2C1=O | -3.7% | . | 0.0 | . | -0.5% | . | 7
Cc1ccc(CN2CCN(Cc3nc4c(s3)CCCC4)CC2CCO)cc1 (centres undefined) | . | 7% | -0.2 | -0.1 | -0.6% | 6 | -2
COc1ccc(C(=O)N/N=C(\C)c2ccccn2)cc1OC | 0.7% | 8% | 0.6 | -1.9 | -1.3% | -8 | -25
C=CCNC(=O)COC(=O)c1ccc(C)c(NC(=O)c2ccco2)c1 | . | 10% | -0.3 | -2.2 | 2.1% | -7 | -4
CCCCN(C(=O)C1CCC(CNS(=O)(=O)c2cccc3nsnc23)CC1)c1ccccc1 (centres undefined) | -1.6% | . | -0.7 | . | ? | . | -13
C/C(=N\NC(=O)C1CC1)c1ccc(OC(F)F)cc1OC(F)F | . | 15% | -0.2 | . | -0.4% | -6 | 21
CCOc1cccc2cc(C(=O)Nc3cc(C)on3)c(=O)oc12 | -3.0% | 3% | 0.7 | 6.2 | ? | 0 | -7
O=C(NNc1cc(N2CCCC2)nc(N2CCCC2)n1)c1ccc([N+](=O)[O-])cc1 | . | 0% | -0.8 | -2.9 | 7.3% | 5 | 14
O=C(NCCC1=CCCCC1)c1ccc2c(c1)N(Cc1ccccc1)C(=O)c1ccccc1S2=O (centres undefined) | -8.1% | . | 1.8 | . | 0.1% | . | -6
COC(=O)NCc1c(C)nn(-c2ccccc2)c1-n1cccc1 | -0.8% | . | 2.1 | . | -1.2% | . | -5

(continued)
SMILES | ClpP mod | Sfp inh | TRPML1 agonist | Menin-MLL FL inh | PINK1 expr mod | TRPV1 potentiator | TRPML1 blocker
COc1ccccc1NC(=O)/C(C#N)=C/c1cccn1C | -0.7% | . | 1.6 | . | 6.8% | . | 2
CCCc1cc(-c2n[nH]c(=S)n2CC)c2ccccc2n1 | ? | -2% | 2.1 | 1.6 | 1.4% | -1 | -20
CN(C)S(=O)(=O)Oc1ccsc1C(=O)Nc1cccc(Cl)c1Cl | 0.7% | 4% | -0.1 | 5.1 | 1.0% | -1 | 0
O=S(=O)(CS(=O)(=O)c1ccc(Cl)cc1)c1ccc(Cl)cc1 | . | -3% | -0.4 | 3.8 | 2.2% | 23 | 10
COc1ccc(-c2nnc3ccc(SCC(=O)NCc4ccco4)nn23)cc1OC | 1.6% | -3% | -0.1 | 3.3 | 0.1%[38.3 µM] | 1 | -6
COc1ccc2cc3cc(C(=O)N4CCN(c5cccc(Cl)c5)CC4)sc3nc2c1 | 1.2% | . | -0.9 | . | 1.2% | . | -3
O=C(CN1CCc2ccccc2C1)Nc1ccccc1C(=O)NC1CC1 | -3.2% | . | 0.8 | . | -1.0% | -2 | 28
O=C(O)c1ccc(N=Nc2c(-c3ccccc3)[nH]oc2=O)cc1 | . | -4% | -0.9 | -13 | -2.5% | 1 | -2
Cc1ccc(-c2nc(C=Nc3ccc(O)cc3)c(O)o2)cc1 | -1.0% | -7% | -0.3 | 2.1 | 3.3% | 1 | -19
O=C(NCCCN1CCN(CCCNC(=O)c2ccc(F)cc2)CC1)c1ccc(F)cc1 | 0.1% | -5% | -0.7 | 2.3 | -1.6% | -16 | -4
O=S(=O)(CC=CCS(=O)(=O)c1ccccc1)c1ccccc1 | . | . | 0.7 | . | 1.2% | . | 3
COc1nc(OCCNC(C)=O)nc(N(C)C)n1 | 0.9% | 15% | 0.2 | 1.0 | 0.9%[38.3 µM] | 1 | -3
Cc1cc2c3nonc3ccc2n1C | -5.6% | 6% | 0.3 | -4.4 | 1.6% | 0 | 12
COc1ccc(NC(=O)CN2CCN(S(=O)(=O)c3ccc(Br)cc3)CC2)cc1 | -1.4% | . | 1.4 | . | 1.1% | . | 10
COc1ccc(/C=N/NC(=O)c2cccc([N+](=O)[O-])c2)cc1OS(=O)(=O)c1ccc(C)cc1 | 1.6% | 14% | -0.8 | 0.6 | 3.0% | -17 | 1
COc1cccc(Nc2cc(C)nc3nc(C)nn23)c1 | -2.5% | -2% | 1.8 | 2.3 | -2.5% | -5 | -21
Clc1ccc(C2=Nn3c(nnc3-c3cc(-c4ccccc4)n[nH]3)SC2)cc1 | 0.8% | -11% | 0.5 | 1.3 | ? | 4 | -17
Cc1ccc2c(c1)c1c(n2CC(O)CN2CCCCC2C)CCCC1 (centres undefined) | 3.5% | 3% | . | 2.0 | 1.7% | 8 | .
CCCCSc1nc2c(cnn2-c2ccccc2)c(=O)n1N | -0.4% | 1% | -1.4 | 4.3 | 3.4% | -10 | -13
Cc1oc2c(c1C(=O)NCc1ccccc1F)C1=NCCN1C=N2 | -4.7% | . | 1.6 | . | 3.3% | . | -1
O=C(N/N=C\c1ccc(COc2ccc([N+](=O)[O-])cc2)o1)c1cccc(Cl)c1 | -3.1% | -8% | -0.9 | 19 | 0.9% | 28 | -2
Cc1ccc(C#N)c(SCc2ccccc2F)n1 | . | -18% | 2.0 | 7.4 | 5.5% | -18 | -13
Cc1ccc(S(=O)(=O)Oc2ccc3c(c2)O/C(=C\c2cccnc2)C3=O)cc1 | -1.3% | 3% | 0.6 | 1.1 | 2.4%[38.3 µM] | 2 | 10
CCOc1ccc(-c2cc(CCCC(=O)NCc3cccnc3)no2)cc1 | -0.9% | -14% | -0.7 | 4.2 | -0.9% | 0 | -8
CC(=O)Nc1cccc(NC(=O)CSc2nnc(NC(=O)c3ccco3)s2)c1 | -0.8% | 8% | 0.1 | . | -2.2% | 1 | 9

Gathered by group, the entries above containing a cyano group
SMILES | ClpP mod | Sfp inh | TRPML1 agonist | Menin-MLL FL inh | PINK1 expr mod | TRPV1 potentiator | TRPML1 blocker
COc1ccccc1NC(=O)/C(C#N)=C/c1cccn1C | -0.7% | . | 1.6 | . | 6.8% | . | 2
Cc1ccc(C#N)c(SCc2ccccc2F)n1 | . | -18% | 2.0 | 7.4 | 5.5% | -18 | -13

The listing continues.
SMILES | ClpP mod | Sfp inh | TRPML1 agonist | Menin-MLL FL inh | PINK1 expr mod | TRPV1 potentiator | TRPML1 blocker
O=C(CNc1ccccc1)N/N=C/c1cn(-c2ccccc2)nc1-c1ccccc1 | 1.6% | 8% | -0.3 | 7.8 | 1.8% | -23 | 1
Cc1c(C(=O)NN2CCOCC2)oc2c1ccc1ccccc12 | . | 2% | -0.6 | -1.6 | 1.6% | -4 | 0
CCNC(=S)NC1CC2CCCC(C1)N2Cc1ccc(C)cc1 (centres undefined) | -0.2% | 10% | 2.0 | -0.6 | 1.7% | 2 | -7
NS(=O)(=O)c1ccc(CNC(=O)CCS(=O)(=O)Cc2ccccc2)cc1 | 0.4% | 12% | -0.1 | -2.5 | -0.3% | -2 | -7
COc1ccc(Cc2nnc(NC(=O)Nc3ccc(F)cc3)s2)cc1 | 0.1% | 23% | . | 0.7 | -1.4% | 19 | .
O=C(Nc1cccnc1Cl)C1CCCN(c2ncnc3c2nc2n3CCCCC2)C1 (centres undefined) | 1.2% | 2% | 1.5 | . | 0.0% | -27 | 2
CN(C)/C(=N\S(=O)(=O)c1ccccc1)c1ccc(F)cc1 | 1.1% | 7% | 0.1 | -2.4 | 0.4% | 25 | 0
CCCCn1c(N)c(N(CC(C)C)C(=O)C2CCN(c3ncnc4sc(C)c(C)c34)CC2)c(=O)[nH]c1=O | 1.7% | . | 0.1 | . | 0.6% | -4 | -2
CCC(C)Sc1cccc(-c2nc3cc(C)ccn3c2NCc2ccccc2)c1 (centres undefined) | ? | . | 0.7 | . | ? | 14 | 36
COc1ncc2nc(-c3ccccc3)c(=O)n(C3CC3)c2n1 | . | 13% | . | 3.3 | 2.0% | . | .
C=CCNC(=O)C1CC1(c1ccccc1)c1ccccc1 (centres undefined) | -0.8% | 4% | -0.4 | 1.5 | 8.9% | 11 | -11
OCCN(CC#CC(O)(c1ccccc1)c1cccc(F)c1)CCO (centres undefined) | -1.2% | 2% | -0.5 | 7.0 | -0.4% | . | -1
